Screening data: PubChem BioAssay, National Center for Advancing Translational Sciences (NCATS)
Sfp inh: Sfp phosphopantetheinyl transferase inhibition. Potency, µM, without a hit: max response, negative = inhibition, hits mostly inhibitors. AID 1490. Q9F4F7. 310,000 tested, 3.5% active. Biochemical Sfp PPTase activity, qHTS; active means well fitted inhibition curve with a large enough effect; inconclusive means small, poorly fitted or top-dose-only effect, or another doubt; inactive means no such curve, though single readings can be large or run the other way;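 further: the enzyme is Sfp with the accession as filed and its product quenches rhodamine fluorescence; potency means the concentration at half of the fitted maximal effect; 0% = enzyme reaction without inhibitor and -100% = no enzyme wells; top concentration of the series not given in the record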
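After 15 min at room temperature with compound, 15 nM Sfp received 5 uM rhodamine-CoA plus 12.5 uM BHQ-2-ybbR (50 mM Hepes pH 7.6, 10 mM MgCl2). Rate came from the fluorescence difference over 30 min, ex 525/em 598 nm.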
Menin-MLL FL inh: displaces fluorescein MLL peptide from human menin. Fluorescence polarization, fluorescein-MLL peptide displacement from menin. FP activity change, % at 61.4 µM. 290,000 tested, under 10 active; inconclusive = falling polarisation curve, or a change in total fluorescence; inactive = total fluorescence flat and polarisation flat or rising; no compound was filed as active; the % refers to the polarisation; negative = inhibition;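 further: % of control where 0% means no effect; inhibitors lower the polarisation; unlabelled MLL peptide was the positive control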
TRPML1 inh: human mucolipin-1 channel inhibition; 390,000 tested, 0.02% active; AID 624415; activity change, negative = inhibition, % (test concentration not listed); TRPML1-inducible cells, Ca2+ dye fluorescence, FDSS; stronger effect = lower value; inhibition of EC80 agonist-evoked calcium signal; Q9GZU1; in the data active means activity change below about -50%; inconclusive means about -30% to -50%; inactive means above about -30%;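 further: stimulus is agonist 54-4 at its EC80 concentration; on the % scale 0 is the no-effect control and ±100 the full control effect; compound concentration not given in the record; the text of the record puts the active cut at -80%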
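Calcium fluorescence in TRPML1-DL cells induced overnight with Tet: a 110 s read after compound pin addition, then a 110 s antagonist read after challenge with 54-4 at 4 uM final (EC80).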
TRPV1 potentiator: human TRPV1 potentiation; Q8NER1; TRPV1-expressing cells, Fluo-8 calcium influx, capsaicin EC20 potentiation; host cell line not named in the record; control for the full effect not named in the record; potentiation, % at 8.33 µM; 320,000 tested, 0.02% active; active means potentiation above 80%; inconclusive means 30% to 80%; inactive means below 30%; further: 0% is about no effect
Target sequence (Q8NER1 whole entry, looked up): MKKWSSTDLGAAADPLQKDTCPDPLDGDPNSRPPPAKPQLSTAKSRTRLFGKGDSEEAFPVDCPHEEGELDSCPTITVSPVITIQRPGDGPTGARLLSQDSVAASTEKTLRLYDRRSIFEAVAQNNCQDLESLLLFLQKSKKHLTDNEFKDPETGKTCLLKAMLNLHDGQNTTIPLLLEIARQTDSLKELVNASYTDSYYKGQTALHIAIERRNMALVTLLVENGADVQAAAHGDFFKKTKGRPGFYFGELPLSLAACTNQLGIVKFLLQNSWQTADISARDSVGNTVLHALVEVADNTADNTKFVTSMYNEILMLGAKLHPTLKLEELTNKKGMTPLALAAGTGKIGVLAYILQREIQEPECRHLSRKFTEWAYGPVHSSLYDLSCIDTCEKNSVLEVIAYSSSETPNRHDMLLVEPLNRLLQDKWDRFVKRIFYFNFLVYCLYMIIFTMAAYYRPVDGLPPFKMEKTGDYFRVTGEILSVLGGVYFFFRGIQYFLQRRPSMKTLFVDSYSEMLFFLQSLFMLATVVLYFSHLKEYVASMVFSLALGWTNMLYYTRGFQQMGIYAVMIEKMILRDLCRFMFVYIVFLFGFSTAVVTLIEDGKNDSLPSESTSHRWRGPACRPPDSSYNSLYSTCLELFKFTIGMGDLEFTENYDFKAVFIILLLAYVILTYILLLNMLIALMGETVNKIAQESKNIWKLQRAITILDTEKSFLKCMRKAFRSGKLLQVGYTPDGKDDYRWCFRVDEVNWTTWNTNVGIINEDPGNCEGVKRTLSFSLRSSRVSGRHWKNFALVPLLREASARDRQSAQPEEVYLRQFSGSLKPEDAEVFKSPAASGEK
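TRPV1-expressing cells were cultured overnight at 35.5C and loaded with Fluo-8 calcium dye for 40 to 90 min at room temperature. After a 10 s baseline, compound was added and calcium influx was read kinetically for 3 min (ex 480/em 520 nm).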
ClpP mod: qHTS Assay for Activators of ClpP; ATP-dependent Clp protease proteolytic subunit (Bacillus subtilis (strain 168)), P80244; purified B. subtilis ClpP, FRET peptide cleavage, 20 min; Potency, µM (doses to about 57.5 µM), inactives show at the highest dose activity change, negative = active; 340,000 tested, 1.9% active; AID 651965, 2013; active = well fitted falling curve with a large enough effect; inconclusive = small, poorly fitted or top-dose-only effect; inactive = no such curve, though single readings can be large or run the other way; further: potency means the concentration at half of the fitted maximal effect; the source files actives as falling curves though it sought activators and does not explain the sign; nearly all actives have a fitted effect of over 65% in size; many hits overshoot -100%
Target sequence (P80244 whole entry, looked up): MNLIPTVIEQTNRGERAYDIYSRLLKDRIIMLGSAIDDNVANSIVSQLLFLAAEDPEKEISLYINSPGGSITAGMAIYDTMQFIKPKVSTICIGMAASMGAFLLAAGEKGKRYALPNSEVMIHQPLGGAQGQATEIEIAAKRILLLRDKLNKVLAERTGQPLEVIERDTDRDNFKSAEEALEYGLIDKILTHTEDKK
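ClpP 10 microg/mL final, pH 8 Tris/KCl buffer with BSA, glycerol, Tween-20; compound pinned in; FRET-FV substrate; RT 20 min; Ex320/Em430; ΔFRET vs ADEP 5.8 microM, DMSO, no enzyme.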
PINK1 modulator: PINK1 expression modulation | PINK1 immunofluorescence, high-content cytometry, 24 h | Potency, µM (top dose mostly 76.6 µM), without a hit: at the top dose activation (PINK1 increase), most hits filed as activators | 410,000 tested, 0.2% active; active = well fitted activation curve with a large enough effect; inconclusive = small, poorly fitted or top-dose-only effect; inactive = flat fitted curve, though single readings scatter; cell line not stated here;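 further: potency means the concentration at half of the fitted maximal effect; % of control where 0% means no effect; nearly all actives have a fitted effect of over 65% in size; a mitochondrial uncoupler was the plate control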
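Stable cell line treated 24 h with compounds at 5 concentrations (CCCP controls), then fixed and immunostained for PINK1 plus nuclear and cell stains; PINK1 immunofluorescence quantified by laser-scanning microplate cytometry.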
TRPML1 agonist: agonists of human TRPML1 channel; TRPML1-expressing cells, Ca2+ dye fluorescence, FDSS; host cell line not named in the record; reference of the full effect not given here; Q9GZU1; 410,000 tested, 0.12% active; activation, % (concentration not given with the values); AID 624414; in the data active = activation above about 50%; inconclusive = about 30% to 50%; inactive = below about 30%; further: 0% is about no effect; the text of the record puts the active cut at 80%
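Cells: TRPML1-DL, 1X Tet inducer, ~16 h at 37 degrees C/5% CO2. Dye: ABD Ca8 no-wash + quencher, 45-90 min RT. Read: 10 s baseline, compound add, 110 s agonist phase; 54-4 EC80 (4uM final), 110 s antagonist phase.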
* = called active by the depositor; ? = inconclusive; nt = no result given; [ ] = another dose, or the depositor's remark.

SMILES	Sfp inh	Menin-MLL FL inh	TRPML1 inh	TRPV1 potentiator	ClpP mod	PINK1 modulator	TRPML1 agonist
CC(C)(C)OC(=O)[C@H](NC(=O)OCc1ccccc1)c1ccccc1	nt	nt	44	-13	-3.2%	3.9%	2.4
Clc1ccccc1OCCNc1nc(NCC2CC2)nc2ccsc12	nt	nt	2	nt	-7.4%	?	0.1
CS(=O)(=O)N1CCc2cc(C(=O)Nc3ccc(O)cc3)ccc21	18%	-0.7	-15	1	-0.1%	1.3%	-0.1
CC(C)CCN1C(=O)c2ccc(C(=O)Nc3cc(C(=O)O)cc(C(=O)O)c3)cc2C1=O	11%	-3.4	1	-3	-15%	1.4%	-1.1
CCOC(=O)c1c(-c2ccccc2)csc1NC(=O)CSc1nncs1	20%	9.5	3	-9	0.7%	1.3%	1.2
Cn1c(=O)[nH]c(NCCc2ccc(O)cc2)c([N+](=O)[O-])c1=O	nt	nt	-14	nt	0.5%	-1.1%	-0.7
CCSc1nc2c(c(=O)[nH]1)C(c1cccnc1)C(C(=O)OC)=C(C)N2 (stereo not drawn)	3%	0.4	8	-4	-3.6%	0.7%	1.2
COc1cccc(CNC(=O)CCn2c(=O)c3cccn3c3cccnc32)c1OC	nt	nt	20	nt	-19%	-0.4%	-0.7
CCCc1nc2ccc(C)cn2c1Cc1ccccc1	nt	nt	nt	nt	4.8%	2.4%	1.1
O=C(Cn1nnc(-c2ccc(F)cc2)n1)OCC(=O)c1ccccc1	79µM*	?	-10	-4	nt	-1.1%	0.3
C/C(=N/NC(=O)c1ccco1)c1ccc(NC(=O)c2ccc(F)cc2)cc1	1%	-0.7	12	-23	-0.4%	19%	-0.1
CCCCCCc1cc2cc(C(=O)Nc3ccccc3OC)c(=O)oc2cc1O	18%	?	1	-1	?	?	0.6
CC1(C)CC(=O)C=C(c2cccc(O)c2)C1	nt	nt	-19	-7	-1.6%	-0.9%	0.1
CC1(C(=O)NS(=O)(=O)c2ccc(Cl)cc2)CCN1C(=O)Cc1cccs1 (stereo not drawn)	nt	nt	nt	nt	0.4%	0.6%	-0.2
COCCNC(=O)C1CC(=O)N(c2ccc(F)c(Cl)c2)C1 (stereo not drawn)	nt	nt	8	nt	0.5%	0.3%	0.1
Cc1c(NS(=O)(=O)c2cc(C(=O)NCCN(C)C)ccc2Cl)c(=O)n(-c2ccccc2)n1C	11%	-9.9	5	-3	-2.0%	-0.1%	0.1
CC1=NN(C(N)=S)C(=O)C1N=Nc1cccc(Cl)c1C (stereo not drawn)	9%	-0.2	nt	14	-0.4%	0.3%	nt
COc1ccc(C(=O)Nc2ccccc2C(=O)N2CCN(c3ccccc3)CC2)cc1	6%	nt	-10	-6	-1.3%	-1.1%	1.9
Cc1ccc(Cl)cc1NC(=O)COC(=O)C1CC1	23%	3.1	8	-3	0.8%	0.0%	0.3
Cc1ccc(NC(=O)c2sc(N)nc2-c2ccccc2)cc1C	1%	0.5	-6	-10	nt	5.0%	0.7
CCOC(=O)C1CCN(S(=O)(=O)c2ccc(OCC)cc2)CC1	0%	-1.1	-25	-21	-0.8%	-0.4%	-1.6
O=C(Cn1c(=O)ccn(Cc2ccccc2)c1=O)Nc1cccc(S(=O)(=O)N2CCOCC2)c1	nt	nt	-22	9	-2.8%	0.5%	0.3
COCCNc1oc(Cc2cccc3ccccc23)nc1C#N	21%	0.4	nt	12	-0.6%	-0.3%	nt
CC1=CC(C)(C)n2c(O)c(N=NC(N)=S)c3cccc1c32	0%	-2.9	5	-12	0.3%	1.2%	0.4
Cc1ccc(S(=O)(=O)N2CCN(C(=O)CN3C(=O)CNC3=O)CC2)cc1	nt	nt	5	11	-1.3%	0.2%	-1.0
CN(C)Cc1c(C(=O)N/N=C/c2cccc3ccccc23)nnn1-c1nonc1N	4%	-0.2	-2	7	-6.5%	11%	-0.1
CN(C)/C=C1\Oc2ccc3ccccc3c2C1=O	5%	1.1	-2	?	nt	0.7%	-1.1
COc1ccccc1CNC(=O)C(NS(=O)(=O)c1cccc2nsnc12)C(C)C (stereo not drawn)	12%	-7.2	-12	1	-1.2%	0.1%	0.6
Cc1ccc(CN2CCSc3sccc3C2=O)cc1	6%	-0.3	-18	-8	-4.9%	-0.5%	2.3
CCN(c1ccccc1)S(=O)(=O)c1cc(NC(=O)CSc2n[nH]c(=O)[nH]c2=O)ccc1Cl	19%	7.0	33	9	-1.9%	2.3%	0.6
O=C(c1cc(-c2ccccc2)nc2ccccc12)N1N=C(C(F)F)CC1(O)C(F)F (stereo not drawn)	16%	4.7	4	4	-8.4%	15%[38.3 µM]	1.3
CCOC(=O)CN1C(=O)N[C@@H](CCc2ccccc2)C(C(C)=O)=C1C	4%	0.0[11.7 µM]	7	nt	0.3%	-0.4%	0.8
Cc1cc(NC(=O)c2ccc(NC(=O)C3CCCO3)cc2)ccc1Br (stereo not drawn)	11%	4.9	14	-14	-2.4%	3.0%	0.2
CCC12CC3CC(C1)CC(C(=O)Nc1nn[nH]n1)(C3)C2	-10%	-0.3	8	-2	-2.6%	-3.6%[38.3 µM]	0.5
Clc1ccc2nc(CSc3ncn[nH]3)cn2c1	14%	0.1	5	-4	0.0%	4.6%	-1.4
CC(C)C(OC(=O)c1cccs1)C(=O)NC1CCCCC1 (stereo not drawn)	8%	2.4	5	28	0.1%	3.4%	0.5
O=C(NC(Cc1ccccc1)C(=O)O)/C(=C/c1ccc(F)cc1)NC(=O)c1ccccc1 (stereo not drawn)	9%	0.0	19	3	0.6%	-0.7%	0.8
COc1ccc(S(=O)(=O)Nc2cccc(NC(C)=O)c2)cc1	3%	3.9	5	8	0.6%	-1.6%[38.3 µM]	-0.6
CS(=O)(=O)N1CCN(c2ccccc2NC(=O)Nc2cccc(Cl)c2)CC1	2%	1.4	nt	19	-0.5%	2.8%	nt
Cc1ccc(NC(=O)c2cc(N3C(=O)C=CC3=O)ccc2Cl)cc1C	14µM*	-3.0	-6	-1	3.2%	12%	-0.2
Nc1nc(NC2CCCCC2)nc(NCCO)c1[N+](=O)[O-]	5%	-7.0	-14	15	0.1%	-0.7%	1.7
CC(C)Cn1c(NCCN(C)C)nc2c1c(=O)[nH]c(=O)n2C	-2%	2.3	-6	0	-1.6%	nt	-0.3
Oc1ccc(N=Nc2n[nH]c(-c3ccc(Br)cc3)n2)cc1	14%	0.3	-12	-6	0.8%	2.3%	3.6
COc1cc2c(cc1OC)C1=C(C#N)CCC(=NC(=O)c3ccco3)N1CC2	-2%	0.4	10	3	nt	-0.9%	0.8
Cc1cccc(NC(=O)CN2C(=O)c3ccccc3S2(=O)=O)n1	nt	nt	-19	-15	nt	2.0%	-0.2
CC(C)Cc1nc2oc3c(=O)[nH]cnc3c2c2c1CCC2	11%	-0.7	-2	2	11µM*	-1.2%	4.8
COc1ccccc1N1CCN(c2ccc3ccccc3n2)CC1	-32%	nt	10	3	nt	-0.3%	1.8
O=C(NCCCN1CCN(c2ccccc2F)CC1)C1CCN(S(=O)(=O)N2CCOCC2)CC1	2%	-0.1	20	-3	-0.7%	1.6%	-0.1

Record cards, from the list above. Values in the order: Sfp inh	Menin-MLL FL inh	TRPML1 inh	TRPV1 potentiator	ClpP mod	PINK1 modulator	TRPML1 agonist
Cc1cccc(NC(=O)CN2C(=O)c3ccccc3S2(=O)=O)n1 as listed: nt	nt	-19	-15	nt	2.0%	-0.2
Oc1ccc(N=Nc2n[nH]c(-c3ccc(Br)cc3)n2)cc1 as listed: 14%	0.3	-12	-6	0.8%	2.3%	3.6

The list goes on:
SMILES	Sfp inh	Menin-MLL FL inh	TRPML1 inh	TRPV1 potentiator	ClpP mod	PINK1 modulator	TRPML1 agonist
COc1ccc(CCNC(=O)C2CC(=O)N(C3CCCCC3)C2)cc1OC (stereo not drawn)	16%	-1.1	-22	4	0.7%	-2.0%	-0.7
Cc1nc(-c2ccccc2)sc1-c1ccc(SCC(=O)NCc2ccccc2Cl)nn1	nt	nt	7	nt	-6.5%	0.0%	-0.1
COc1ncnc2c1ncn2CCCNCc1ccc2c(c1)OCO2	nt	nt	5	nt	0.2%	-1.1%	-0.3
COc1ccc(CNc2nc3c(-c4cccc(F)c4)nnn3c3ccccc23)cc1	nt	nt	13	nt	3.8%	7.8%	-0.8
CN1C(=O)[C@@H]2[C@@H]3C[C@@H]([C@H]4ON=C(c5ccc(Cl)cc5)[C@@H]34)[C@@H]2C1=O	16%	3.6	-1	3	3.9%	0.1%	-0.1
COc1ccccc1OCc1nc(-c2cccc([N+](=O)[O-])c2)no1	5%	0.5	13	0	nt	-2.0%	1.0
COc1ccc(NC(C)C(=O)N/N=C/c2ccc([N+](=O)[O-])s2)cc1 (stereo not drawn)	14%	0.0	-2	-2	nt	?	0.1
O=C(COC(=O)c1ccc(Br)o1)c1ccc(S(=O)(=O)N2CCCCC2)cc1	nt	nt	0	5	-1.0%	2.0%	24
Cc1cc(F)ccc1NC(=O)c1cccnc1	1%	-2.7	-8	-3	nt	-0.8%	-0.3
CC(C)CN(CC(C)C)S(=O)(=O)c1ccc(C(=O)Nc2sc3c(c2C(N)=O)CC(C)(C)NC3(C)C)cc1	nt	nt	28	nt	10%	-1.0%	-0.1
Cc1cc(NC(=O)CSc2nnnn2-c2ccc(C)c(Cl)c2)no1	-2%	0.6	-23	9	nt	9.4%	2.3
Cn1nc(C(C)(C)C)cc1N1C(=O)CCC1(C)C(=O)Nc1ccc2c(c1)OCCO2 (stereo not drawn)	nt	nt	nt	nt	0.9%	0.6%	0.5
CCOC(=O)[C@H]1[C@H]2COc3ccc(Br)cc3[C@@H]2N2C(=O)c3cc(OC)c(OC)cc3NC(=O)[C@@]12C	nt	nt	13	-12	-8.5%	1.3%	0.3
CCOC(=O)c1nnn(-c2nonc2-n2cccc2)c1-c1cccc([N+](=O)[O-])c1	8%	-4.2	-7	1	28µM*	-1.1%	-0.3
Cc1cc(C[n+]2ccsc2N)c2ncccc2c1	5%	-9.4	8	-4	-0.3%	1.5%	-0.2
O=C(CCCN1C(=O)/C(=C/c2cccc(Br)c2)SC1=S)Nc1ccccn1	5%	2.3	22	7	-1.7%	-2.4%	-0.2
CCC(C)NC(=O)Cn1ncc2c([nH]c3ccc(C)cc32)c1=O (stereo not drawn)	nt	nt	-18	nt	-2.9%	1.3%	-0.3
CS(=O)(=O)c1ncc(CO)n1Cc1ccccc1	9%	-0.3	13	11	nt	2.4%	0.8
